VDR inhibitor = Inhibitors of the vitamin D receptor (VDR): qHTS; Vitamin D3 receptor (Homo sapiens), P11473; VDR-SRC2-3 peptide fluorescence polarization, 2 h; Potency, µM, inactives show max response, negative = inhibition, most hits filed as inhibitors; hit rate 0.93% among 400,000; AID 504847, 2011; active = well fitted inhibition curve with a large enough effect; inconclusive = small, poorly fitted or top-dose-only effect, or another doubt; inactive = no such curve, though single readings can be large or run the other way; note: series mostly up to about 120 µM
Target sequence (P11473 whole entry, looked up): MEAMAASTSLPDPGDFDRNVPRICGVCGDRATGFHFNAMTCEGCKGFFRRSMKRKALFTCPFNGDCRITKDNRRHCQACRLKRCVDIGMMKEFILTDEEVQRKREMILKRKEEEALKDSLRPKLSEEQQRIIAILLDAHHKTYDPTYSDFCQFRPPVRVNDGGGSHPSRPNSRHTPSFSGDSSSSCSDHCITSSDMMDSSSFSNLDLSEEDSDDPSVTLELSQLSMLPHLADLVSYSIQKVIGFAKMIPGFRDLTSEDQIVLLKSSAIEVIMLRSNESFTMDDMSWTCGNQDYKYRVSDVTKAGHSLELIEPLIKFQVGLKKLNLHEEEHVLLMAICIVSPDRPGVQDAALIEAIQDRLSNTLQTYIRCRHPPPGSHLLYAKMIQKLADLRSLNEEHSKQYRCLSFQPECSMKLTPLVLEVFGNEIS
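FP read-out; VDR + SRC2-3 coactivator peptide; 23 nl compound by pintool; 2 h RT incubation; reagents held at 4 deg C, protected from light.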
Numbers without * were called inactive; ? = inconclusive; & = joins results of further samples; ! = not confirmed by another sample; [ ] = remark or other dose. % is set by controls: 0 for no effect and ±100 for the full control effect; potency is the fitted concentration of half-maximal effect. Only part of the results is shown, so the mix of outcomes need not match the whole.

molecule | VDR inhibitor
CC(=O)Nc1ccc(C(c2c(O)c3ccccc3oc2=O)c2c(C)n(C)n(-c3ccccc3)c2=O)cc1 (stereo not given) | 5%
Cc1ccc(CN2CCN(CC(=O)N3CCC4(CC3)OCCO4)C2=O)cc1 | -4%
CCOC(=O)c1cc(CC)sc1/N=C/C1C(=O)NC(=S)NC1=O | -20%
O=C(Nc1cccc(Cl)c1)c1c(O)c2c(n(Cc3ccco3)c1=O)CCCC2 | 10%
CC12CC(c3ccccc3O1)C(C(=O)OCc1ccccc1)C(=O)N2 (stereo not given) | 7%
CC(C)CCn1c(=O)c(C(=O)NCc2ccc3c(c2)OCO3)c(O)c2ccccc21 | -2%
O=C1NC(=O)C(=Cc2ccc(-c3cc(Cl)ccc3[N+](=O)[O-])o2)C(=O)N1 | 79µM*
CC1=Nc2ccccc2/C1=C/c1c(O)[nH]c(=O)[nH]c1=O | 6%
COC(=O)C1=C(N)Oc2c(c(=O)oc3ccccc23)C1c1cccnc1 (stereo not given) | 8%
O=C(c1ccccc1)c1cn(CC(=O)N2CCCC2)c2ccccc12 | 14%
O=C1CC(c2ccc(C(F)(F)F)cc2)c2c(c3ccccc3oc2=O)O1 (stereo not given) | -1%
O=C(COc1ccccc1)N1CCN(C2CCCC2)CC1 | -1%
Cc1cccc(-n2c(/C=C/c3c[nH]c4ccccc34)nc3ccccc3c2=O)c1 | 2%
CCCCCCN=C(C)c1c(O)n(CCCC)c(=O)[nH]c1=O | -4%
CCC(=NCCCN(CC)CC)c1c(O)n(C2CCCCC2)c(=O)[nH]c1=O | -6%
CN1CCN(Cc2nc3ccccc3c(=O)[nH]2)CC1 | 3%
COC(=O)C1=C(c2cccc(OCc3ccccc3)c2)C[C@@H]2CC[C@H]1N2C(=O)NCc1ccc(C(C)(C)C)cc1 | 6%
Cc1ccc(N2C(=O)NC(=O)/C(=C/c3ccc(OC(=O)c4cccs4)cc3)C2=O)cc1 | ?
Cc1cc(C)n(CCOC(=O)C2C(C=C(Cl)Cl)C2(C)C)n1 (stereo not given) | 36%[activator]
Cc1cccc(C)c1NC(=O)c1cccn(Cc2ccc3c(c2)OC(F)(F)O3)c1=O | 7%
CCC(=Nc1ccc(OC)cc1OC)c1c(O)[nH]c(=O)[nH]c1=O | -27%
Cc1nc2ccccc2c(=O)n1-c1cccc(C(F)(F)F)c1 | 6%
CC(C)OC(=O)Nc1ccc(N=C(N)N[N+](=O)[O-])cc1 | -7%
CC(N)Cc1c[nH]c2ccc(OCc3cccs3)cc12 (stereo not given) | 5%&-8%
Cc1ccc(NC(=O)c2ccc(C)c(S(=O)(=O)N3CCCCC3)c2)nc1 | -13%
C=CCN1CC[C@@]23c4c5ccc(O)c4O[C@H]2/C(=N\N=C2/CC[C@@]4(O)[C@H]6Cc7ccc(O)c8c7[C@@]4(CCN6CC=C)[C@@H]2O8)CC[C@]3(O)[C@@H]1C5 | -6%
O=P(NC1CCCCC1)(Oc1ccccc1)Oc1ccccc1 | -2%
COc1cccc(/C=C/c2nc3ccccc3c(=O)n2-c2ccc(Cl)cc2)c1OC | 15%
C[C@]12CCC3C(CC[C@H]4C[C@@H](O)CC[C@]34C)C1C[C@@H](O)[C@H]2O (stereo not given in full) | 11%
CC1CN(C(=O)CCC(=O)N2CCC3(CC2)OCCO3)c2cc(Cl)ccc2O1 (stereo not given) | 0%
CCCCOc1ccc(CCN)cc1Cl | 4%
C=CCn1c(O)c(C(C)=NCc2cccnc2)c(=O)[nH]c1=O | 14%
CCC(=Nc1cc(OC)ccc1OC)c1c(O)[nH]c(=O)[nH]c1=O | -5%
Cc1cc(OCC(=O)N2CCC(C(=O)O)(c3ccccc3)CC2)c2c(C)c(C)c(=O)oc2c1 | -19%
Cc1cc(N2CCCC2)ccc1C=C(C#N)C#N | ?
CC(=NCC1CCCO1)c1c(O)n(-c2ccc(C)cc2)c(=O)[nH]c1=O (stereo not given) | 7%
CC1(C)Cc2c(sc3c2C(=O)NC(c2cccnc2)N3)CO1 (stereo not given) | -4%
COP(=O)(OC)C(NC(=O)C(C)(C)C)=C(Cl)Cl | -2%
COc1cc2c(cc1OC)[C@@H]1C(=O)c3ccc(OC)c(CC=C(C)C)c3OC1CO2 (stereo not given in full) | -7%
COc1ccc2nc(NC(=O)CCc3nc(C4=CCN(C)CC4)no3)sc2c1 | -14%
O=c1[nH]c(=O)n(C2CCCCCC2)c(O)c1C=NC1CCN(Cc2ccccc2)CC1 | 24%
CCOc1cc2c(cc1OCC)-n1cccc1C(c1ccc(OC)c(O)c1)NC2 (stereo not given) | -17%
COc1ccc(OCC(=O)N2CCN(CC3CC4C=CC3C4)CC2)cc1 (stereo not given) | 8%
O=C(O)c1ccccc1Nc1cccc(C(F)(F)F)c1 | ?
COc1ccc(Nc2nc3ccc(C)cc3cc2C#N)c(OC)c1 | 53%[activator]
Nc1ccc2nonc2c1[N+](=O)[O-] | -16%
Cc1ccccc1N1C(=O)NC(=O)/C(=C\c2ccc3c(c2)CCCN3Cc2ccccc2)C1=O | 40µM*
CC[C@@H]1/C=C/C=C/C[C@H](C)[C@@H](O)[C@](C)(O)C(=O)[C@H](C)[C@@H](O)[C@H](C)C(=O)[C@H](C)[C@@H](O)[C@H](C)/C=C/C(=O)O[C@H]2[C@@H](C)[C@@H](CC1)O[C@@]1(CC[C@@H](C)[C@@H](C[C@H](C)O)O1)[C@@H]2C | ?
C[C@H]1CC[C@H]2NCCN[C@H]2C1 | 3%
CCn1c(O)c(C=Nc2cc(Cl)ccc2Cl)c(=O)n(CC)c1=O | -11%
CN1CCN(c2ccc(NC(=O)C(C)(C)C)cc2)CC1 | 6%
O=C(CCc1nnc2ccc(NCc3ccc(F)cc3)nn12)N1CCC2(CC1)OCCO2 | -7%
NC(Cc1ccccc1)c1nc2ccccc2[nH]1 (stereo not given) | -10%
CCC12C=CCN3CCC4(c5cc(Br)c(OC)cc5N(C)C4C(O)(C(=O)OC)C1OC(C)=O)C32 (stereo not given) | 0%
O=C(Nc1cccc2ccccc12)c1nn(C23CC4CC(CC(C4)C2)C3)cc1Br | 4%
COC(=O)C1=CO[C@@H](OC2OC(CO)C(O)C(O)C2O)[C@@H]2C(CO)=CC[C@H]12 (stereo not given in full) | -1%

Continued:
molecule | VDR inhibitor
c1ccc(SSc2ccccc2)cc1 | 32µM*
COC(=O)CC1(CC(=O)OC)C(=O)N(c2ccccc2)C(=O)N(c2ccccc2)C1=O | 11%
O=C(O)c1cccc2c1NC(c1cccc([N+](=O)[O-])c1)C1CC(Sc3ccccc3[N+](=O)[O-])C(Cl)C21 (stereo not given) | 59%[activator]
C=CC[C@@H](CC/C=C/C=C/CC/C=C\[C@@H]1CSC([C@@H]2C[C@@H]2C)=N1)OC | ?
Cc1ccc(-c2cc(C(F)F)n3ncc(C(=O)N4CCC5(CC4)OCCO5)c3n2)cc1 | -1%
CCCCCn1c(=O)c(C(=O)Nc2ccccc2S(N)(=O)=O)c(O)c2ccccc21 | -3%
FC(F)(F)c1ccc(CNCCc2ccc3c(c2)OCO3)cc1 | -11%
Cc1ccc2c(c1)CC1(CN2C)C(=O)NC(=O)N(c2ccc(C)c(C)c2)C1=O (stereo not given) | 7%
CN1C(=O)C(C2c3ccccc3C(=O)N2Cc2ccccc2)C(=O)N(C)C1=O (stereo not given) | -7%
CCNC(=O)[C@@H]1O[C@@H](n2cnc3c(N)ncnc32)[C@H](O)[C@H]1O | 2%
OCC1CCCN2CCCCC12 (stereo not given) | 12%&-5%
COc1cccc(-n2nc(C(=O)N3CCC4(CC3)OCCO4)c3ccccc3c2=O)c1 | 14%
Nc1cc(N2CCNCC2)ccc1[N+](=O)[O-] | -6%
CN=C(SCc1cc2c(cc1Cl)OCO2)c1c(O)n(C)c(=O)n(C)c1=O | -11%
O=C(Nc1cccc(F)c1)N1CCC2(CC1)CCN(C(=O)Oc1ccccc1)CC2 | 7%
O=C(c1ccco1)C12CN3CN(CN(C3)C1)C2 | 15%

Part of the list above in order of SMILES length, lowest first:
molecule | VDR inhibitor
O=C(c1ccco1)C12CN3CN(CN(C3)C1)C2 | 15%
CN=C(SCc1cc2c(cc1Cl)OCO2)c1c(O)n(C)c(=O)n(C)c1=O | -11%
CCNC(=O)[C@@H]1O[C@@H](n2cnc3c(N)ncnc32)[C@H](O)[C@H]1O | 2%

Additional structures follow.
molecule | VDR inhibitor
C[C@]12CCC(=O)C(O)=C1CC[C@@H]1[C@@H]2CC[C@]2(C)C(=O)CC[C@@H]12 | 5%
O=C(CN1C(=O)CN=C(c2ccccc2)c2ccccc21)NCc1ccco1 | -7%
CN1CCN(C(=O)COc2ccc(S(=O)(=O)NCc3ccccc3)cc2Cl)CC1 | -9%
CO[C@@H]1C=CC23c4cc5c(cc4CO[C@]2(O)CN(C)[C@H]3C1)OCO5 (stereo not given in full) | 17%
Cn1c(O)c(C=Nc2ccccc2)c(=O)n(C)c1=O | -17%
Cc1ccc(OCCOc2cccc(C=C3C(=O)NC(=O)NC3=O)c2)c(C)c1 | ?
Cn1c(O)c(C(=O)c2ccccc2Cl)c(=O)n(C)c1=O | -17%
COC(=O)C1=C(c2ccc(-c3ccccc3)c(F)c2)C[C@@H]2CC[C@H]1N2C(=O)NCCCOC(C)C | -24%
Cc1cccc(N2C(=O)NC(=O)/C(=C\C=C\c3ccco3)C2=O)c1 | ?
O=c1[nH]c(=O)n(Cc2ccc(F)cc2)c(O)c1C=NCc1cccnc1 | 26%
COc1ccc(OC)c(CC(=O)N(C)C2CCCN(Cc3ccccc3F)C2)c1 (stereo not given) | -5%
O=P(C(=Nc1ccc(Cl)cc1)N1CCOCC1)(N1CCOCC1)N1CCOCC1 | 13%
O=c1[nH]c(CN2CC=C(c3ccccc3)CC2)nc2cc(C(F)(F)F)ccc12 | 38%[activator]
c1ccc(C2c3ccccc3-n3nncc3CN2CC2CCCCC2)cc1 (stereo not given) | -9%
NC(Cc1ccccc1)Cc1ccccc1 | 1%
Cc1c(C)c2ccc(OCC(=O)N3C[C@H]4C[C@@H](C3)c3cccc(=O)n3C4)c(C)c2oc1=O | -13%
FC(F)(F)c1ccccc1CN1CCN(Cc2ccccc2)CC1 | 15%
CC1CCCCN1C(=O)c1ccc(N2CC3CC(C2)c2cccc(=O)n2C3)c([N+](=O)[O-])c1 (stereo not given) | -13%
Cc1cccc(N2C(=O)NC(=O)/C(=C\c3cccn3-c3ccc(Cl)cc3)C2=O)c1 | 17%
CN1CCc2cc3c(cc2[C@@H]1O)OCO3 | -5%
O=C(c1ccc(Cl)cc1)C1CCCN(Cc2cccc3ncccc23)C1 (stereo not given) | -8%
Cc1cc([N+](=O)[O-])c(Cl)cc1NC(=O)C(C)C | -15%
CC1=C2C(=COC(C)C2C)C(=O)C(C(=O)O)=C1O (stereo not given) | ?
O=C(Nc1ccc(Cl)cc1)O/N=C(\c1ccccc1)c1ccccn1 | 6%

A few values from the results shown:
VDR inhibitor with O=C(Nc1cccc(F)c1)N1CCC2(CC1)CCN(C(=O)Oc1ccccc1)CC2 stands at 7%
VDR inhibitor with CC1=Nc2ccccc2/C1=C/c1c(O)[nH]c(=O)[nH]c1=O stands at 6%
VDR inhibitor with OCC1CCCN2CCCCC12 (stereo not given) stands at 12%&-5%
VDR inhibitor with COC(=O)C1=C(N)Oc2c(c(=O)oc3ccccc23)C1c1cccnc1 (stereo not given) stands at 8%

Following part:
molecule | VDR inhibitor
CCN1C[C@@]2(COC)C3[C@@H](OC)[C@H]4[C@@H]1[C@@]3(C1C[C@H]3[C@H](OC(=O)c5ccccc5)C1[C@]4(OC(C)=O)C[C@H]3OC)[C@@H](OC)C[C@H]2O (stereo not given in full) | ?
C=CCC1(CCCCC)C(=O)NC(=S)NC1=O | -18%
CC(C)NC(C)C(=O)C12CC3CC(CC(C3)C1)C2 (stereo not given) | 2%
NS(=O)(=O)c1nc[nH]c1[N+](=O)[O-] | -4%
C=CCN1CCc2cccc3c2[C@H]1Cc1ccc(O)c(O)c1-3 | 10µM*!
N#CC(C#N)=C(N)c1cccnc1 | 4%
CCCCCCCCCC(=O)O[C@H]1CC[C@H]2[C@@H]3CCC4=CC(=O)CC[C@]4(C)[C@H]3CC[C@]12C | 0%
C=CCn1c(O)c(C(C)=Nc2ccc(NC(C)=O)cc2)c(=O)[nH]c1=O | -4%
O=C(c1ccccc1)C(Cc1ccccc1)N1CCOCC1 (stereo not given) | 2%
ClCC1CO1 (stereo not given) | 2%
Fc1cccc(CN2CCN(c3ccc(Cl)cc3)CC2)c1 | -25%
CC1(c2ccccc2)NCCN2C(=O)CSC21 (stereo not given) | 3%
CNC(=O)Nc1ccc(C(O)(C(=O)OC)C(F)(F)F)cc1 (stereo not given) | 20%
COc1cc2c(cc1OC)-c1c(OC)c(OC)cc3c1C(C2)N(C)CC3 (stereo not given) | -5%
O=C(Cc1ccccc1)OCCN1CCCCC1 | 21%
CN1C(=O)CCS(=O)(=O)C1c1ccc(Cl)cc1 (stereo not given) | 3%&1%
COC(=O)C1=C(C(=O)OC)C2OC1c1cc3ccccc3cc12 | 8.9µM*
CN1CCN(c2ccc(S(=O)(=O)C(F)(F)F)cc2[N+](=O)[O-])CC1 | -2%
COC[C@H]1OC(=O)c2coc3c2[C@@]1(C)C1=C(C3=O)[C@@H]2CCC(=O)[C@@]2(C)C[C@H]1OC(C)=O | 71µM*
COC(=O)C1=C(c2cccc(OC)c2OC)C[C@@H]2CC[C@H]1N2C(=O)N1CCCCC1 | -17%
C[C@]12CC[C@H](O)C[C@H]1CC[C@@H]1[C@@H]2CC[C@]2(C)C(=O)CC[C@@H]12 | 2%
Fc1ccc(C(OCCN2CCCC2)c2ccc(F)cc2)cc1 | 10%
O=c1c(/C=N/N2CCOCC2)c(O)n(-c2ccccc2)c(=S)n1-c1ccccc1 | 1%
CCOC(=O)C1(c2ccccc2)CCN(CCC(C#N)(c2ccccc2)c2ccccc2)CC1 | -8%&-4%
